FGF22 binding: binders of recombinant human FGF22 by thermal shift; SYPRO orange fluorescence; percent of sucrose octasulfate shift, DMSO zero; calls only at 9.99 µM; 340,000 tested, 1.5% active;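 active means melting point raised past a set limit in the mean and every replicate; inconclusive means no clear call; three in four hits are not shown here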
Target sequence (Q9HCT0 whole entry, looked up): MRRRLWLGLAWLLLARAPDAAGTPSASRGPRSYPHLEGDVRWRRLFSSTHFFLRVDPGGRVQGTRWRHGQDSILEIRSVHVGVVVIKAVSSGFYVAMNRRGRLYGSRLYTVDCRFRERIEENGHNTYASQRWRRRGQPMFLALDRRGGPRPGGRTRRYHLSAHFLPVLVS
Ecoli growth: inhibitors of Escherichia coli growth; OD600, 23 h; hits give low values; OD600 absorbance (test concentration not listed); 330,000 tested, 0.21% active;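 active means OD600 absorbance below the run mean of sample wells minus 3.6 SD, in any replicate, cut at about 0.56 in these data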;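 further: stock transfer was 300 nL into about 60 µL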
UCH37 inh: inhibitors of human deubiquitinating enzyme UCH37; purified proteasome/UCH37, Ub-AMC cleavage fluorescence; Q9Y5K5; 330,000 tested, 0.33% active; inhibition, % (test concentration not listed);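 active means mean of two replicates above 20%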;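 further: 0% = compound-free wells with enzyme and 100% = wells lacking proteasome; stock transfer was 100 nL into about 20 µL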
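Material: human UCH37 enzyme supplied as purified proteasome complex / Amount: 0.15 nM proteasome as dispensed / Buffer or medium: pH 7.4 Tris-HCl (50 mM) with ovalbumin, ATP-MgCl2, DTT / Times: preincubation 30 min, reaction 25 min, room temperature / Technique: AMC fluorescence from Ub-AMC cleavage, excitation 355 nm, emission 460 nm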
LANA-H2B inh: blocks KSHV LANA binding to histone H2A/H2B; Q9QR71; 320,000 tested, 0.6% active; AID 2629; cell-free LANA-H2A/H2B peptide, fluorescence polarization; inhibition, % (concentration not given with the values); in the data active means inhibition mostly above about 10%, no sharp cut-off; inactive means mostly below about 6.7%;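 further: stock transfer was 7.5 nL into about 10 µL; 0% = median of vehicle wells and 100% = median of positive control wells; one replicate is shown; the record names a cut of 25% in any replicate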
HNF4A DNA FP: change in binding of human HNF4 alpha to DNA; P41235; HNF4a-FITC DNA binding, fluorescence polarization, 1 h; activity change, % at 10 µM; 360,000 tested, 0.3% active; in the data active means activity change above about 30%, passing the limit was not always enough;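 further: controls were the assay level and a saturating level of protein; the project sought stronger binding though the title names inhibitors; some compounds called inactive have numbers as strong as hits; positive values seem to mean higher polarization but the record does not say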
Target sequence (P41235 whole entry, looked up): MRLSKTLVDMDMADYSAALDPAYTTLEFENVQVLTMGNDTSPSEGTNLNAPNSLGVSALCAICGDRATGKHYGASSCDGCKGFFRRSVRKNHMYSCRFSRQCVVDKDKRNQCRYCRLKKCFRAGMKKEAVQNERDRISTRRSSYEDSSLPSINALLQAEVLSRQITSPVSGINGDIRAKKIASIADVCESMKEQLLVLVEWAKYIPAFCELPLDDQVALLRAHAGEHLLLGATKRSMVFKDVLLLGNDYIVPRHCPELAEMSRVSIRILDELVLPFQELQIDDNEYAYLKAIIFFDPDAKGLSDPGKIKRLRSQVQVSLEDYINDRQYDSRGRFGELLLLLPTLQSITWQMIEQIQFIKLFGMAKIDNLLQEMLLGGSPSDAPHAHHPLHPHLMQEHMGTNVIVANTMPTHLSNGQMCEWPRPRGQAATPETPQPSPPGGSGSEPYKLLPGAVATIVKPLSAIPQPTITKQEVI
ALR inh: blocks human ALR sulfhydryl oxidase activity; P55789; purified ALR, DTT oxidation, H2O2 HRP-luminol luminescence; inhibition, % (concentration not given with the values); 290,000 tested, 3.8% active; AID 485317;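 active means mean and each replicate at 75% or more; inconclusive means only one of the two met; inactive means neither met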;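 further: stock transfer was 7.5 nL into about 7.5 µL; 0% = neutral wells and 100% = wells with inactivated enzyme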
Target sequence (P55789 whole entry, looked up): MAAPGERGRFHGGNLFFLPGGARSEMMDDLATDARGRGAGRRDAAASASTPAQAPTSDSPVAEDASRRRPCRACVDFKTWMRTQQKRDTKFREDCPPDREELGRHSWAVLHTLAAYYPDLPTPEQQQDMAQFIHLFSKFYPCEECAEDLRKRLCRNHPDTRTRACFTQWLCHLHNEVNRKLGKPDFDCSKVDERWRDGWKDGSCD
B2AR ag: agonists of human beta-2 adrenergic receptor inducing internalization | response, % (no concentration beside the values) | 340,000 tested, 0.43% active | Am2.2-beta2AR cells, FAP receptor internalization, flow cytometry; reference of the scale not given here | P07550;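 active means response above a set limit, near 3 SD of response in nonfluorescent compounds, cut at about 42% in these data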;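 further: stock transfer was 100 nL into about 11 µL; a reference agonist was the positive control; negative values mostly stem from fluorescent compounds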
Starred values were filed as active, the others as inactive; i = inactive; ? = inconclusive; · = no result given; + = active, no number; & = joins results of further samples. These rows are one share of the data, so the mix of outcomes need not match the whole.

Molecule,FGF22 binding,UCH37 inh,HNF4A DNA FP,Ecoli growth,B2AR ag,ALR inh,LANA-H2B inh
CC(=O)C[C@H]1c2ccccc2S(=O)(=O)N1C1CCCC1,i,1.3,1.2,·,-6,·,5.7
CSc1cccc(NC(=O)CSc2ccc(Cl)cc2)c1,·,3.7,0.1,0.74,-2,-4,-0.3
C=CCN(CC=C)Cc1c(C)[nH]c2c(C)c(C)ccc2c1=O,i,2.8,2.0,0.69,-4,2,-2.4
CN(C(=O)COC(=O)CSc1cc(Cl)ccc1Cl)c1c(N)n(Cc2ccccc2)c(=O)[nH]c1=O,i,2.2,-0.2,0.68,-4,·,·
COC(=O)c1ccccc1NC(=O)c1ccc2c(c1)C(=O)N(Cc1ccco1)C2=O,·,-16,1.1,0.76,1,-9,1.7
Cc1cc(C)c(OCCN2CCCC2)c(Cl)c1,i,0.9,2.7,0.66,-4,-1,-1.1
O=C(N/N=C1\CC2CC=CC12)c1ccc(COc2ccccc2)cc1 (stereo unspecified),i,·,2.1,·,-7,-3,4.1
COc1ccc(-c2ccc(=O)n(CC(=O)NCc3ccco3)n2)cc1,·,0.1,0.8,0.71,-1,-6,-1.5
COc1ccc(NC(=O)CC(C)=O)c(OC)c1,i,·,-1.0,·,-5,·,·
O=C(COC(=O)Cc1ccccc1[N+](=O)[O-])NC1CCCC1,i,5.4,1.6,0.74,1,1,1.1
N#Cc1ccc(CSc2nnc(NC(=O)c3ccc4ncsc4c3)s2)cc1,i,-1.3,3.7,0.67,-4,?,1.6
Cc1ccc(CCNC(=O)CS(=O)Cc2nc(-c3ccccc3Cl)oc2C)cc1 (stereo unspecified),i,2.6,1.2,0.7,6,99*,5.7
Cc1cc(C)c2c(CC(=O)NC(C)C)coc2c1,·,1.7,0.4,0.72,4,-6,1.4
Cc1ccc(S(=O)(=O)/N=C(/Nc2cccc3ccccc23)c2ccc(F)cc2)cc1,i,0.0,5.3,0.64,-8,-7,3.2
COc1ccc(NC(=S)N2CCN(C(=O)c3ccccc3)CC2)cc1,i,-0.7,3.2,0.65,4,-1,1.9
ON=C1c2ccccc2-c2ccccc21,i,3.4,0.1,0.68,11,-2,3.2
O=c1onc(-c2cccnc2)n1-c1ccccc1F,i,5.4,0.1,0.66,-3,9,-3.7
CC(=O)c1cc2c(cc1NS(=O)(=O)c1ccc(C)cc1)OCCO2,·,1.1,1.4,0.77,4,-7,4.2
O=C(CCCn1cnc([N+](=O)[O-])n1)Nc1cccc(Cl)c1Cl,·,3.7,5.0,0.64,-2,-48,2.1
CCOC(=O)c1cc(C)sc1NC(=O)CSc1nccn1C,i,2.6,2.9,0.7,-1,49,-2.6
O=C(Nc1ccc(Oc2cccnc2)cc1)c1ccc([N+](=O)[O-])cc1,i,3.9,-0.5,0.72,-2,-3,-5.4
O=C(/C=C/c1ccccc1)NCC(=O)N/N=C\c1cccnc1,i,·,-2.7,·,-2,-5,-0.1
CC(Oc1ccc(Cl)cc1)C(=O)NCC1CCCO1 (stereo unspecified),i,1.0,1.0,0.64,9,-3,1.2
CN(C)/C=N/NC(=O)c1ccccc1,·,·,0.2,·,3,9,1.2
Cc1ccc(C)c(NC(=O)CSc2nc3ccccc3nc2N2CCOCC2)c1,i,-15,1.5,0.79,-94,2,-2.3
COc1ccc(-c2cnnn2-c2ccc(NC(=O)c3ccco3)cc2)cc1OC,·,3.2,-3.2,0.71,-18,-6,-2.0
COC(=O)C1=C(C)N(Cc2ccccc2)C(=NCCCOC(C)C)N[C@H]1c1ccccc1,i,0.5,-3.1,·,6,-7,-2.1
CS(=O)(=O)Cc1nc2ccccc2n1CC(=O)Nc1cccc(S(=O)(=O)N2CCCC2)c1,i,·,1.5,·,-8,·,·
CSc1ccc(S(=O)(=O)N(CC(=O)NN=C2CCN(C)CC2)c2ccc(C)cc2)cc1,i,1.9,3.8,0.69,-3,·,5.7
Cc1noc(C)c1COc1ccc(C(=O)OCC(=O)OC(C)(C)C)cc1,i,4.2,-0.6,0.67,-1,-9,2.8
Cc1cc(C)nc(Nc2ccc(C)c([N+](=O)[O-])c2)n1,i,3.9,-1.5,0.68,-8,-6,-3.1
O=C(Nc1ccc(Br)cn1)c1ccc2ccccc2c1,i,1.4,4.2,0.69,-13,-3,8.0
CN(C)c1cc(=O)n2c(n1)SCCC2,·,1.4,0.3,0.76,-1,2,3.5
CCC1CCc2sc(C(=O)NCC(c3ccccc3OC)N3CCCC3)cc2C1 (stereo unspecified),i,-0.7,2.3,0.6,33,-3,-0.2
NC(=O)CC(NC(=O)Cc1ccc(Br)cc1)c1ccc(NCC2CC2)c([N+](=O)[O-])c1 (stereo unspecified),i,5.1,14,0.7,-5,3,-5.1
CCCCc1ccc(NS(=O)(=O)c2c(C)n(C)c(=O)n(C)c2=O)cc1,i,1.3,-1.1,0.71,-12,·,-1.4
Cc1nn(CC(=O)NCCc2ccc(Cl)cc2)c(C)c1[N+](=O)[O-],·,2.5,-0.2,0.68,-2,3,11
COC(=O)c1ccc(CSc2nnc(CNC(=O)c3cccs3)o2)o1,·,3.3,1.0,0.73,7,·,1.0
Cn1c(=S)sc2ccc3ccccc3c21,i,·,4.3,·,60*,·,·
O=C(CNC(=O)c1ccco1)NCC(=O)OCc1ccc(F)cc1,i,3.8,-2.3,0.67,-3,-1,4.7
CCOC(=O)CSc1ncc(OC)c(Sc2ccc(OC)cc2)n1,·,1.8,-0.7,0.7,0,-1,-1.9
O=C(COC(=O)CSc1cc(Cl)ccc1Cl)NCc1ccc2c(c1)OCO2,i,1.1,0.1,0.65,2,-7,-3.3
Cn1cnc(C(=O)N2CCN(C(=O)OC(C)(C)C)CC2)c1C(=O)N1CCN(C(=O)OC(C)(C)C)CC1,i,1.9,1.7,0.67,-5,3,3.1
COc1ccc(CCNC(=O)C2CC(=O)N(c3ccccc3)C2)cc1OC (stereo unspecified),·,2.8,-0.8,0.68,-1,-2,-2.1
CCOC(=O)N1CCC(c2cc(=O)n(-c3ccccc3)[nH]2)CC1,i,4.7,2.8,0.7,-2,-1,-1.2
CC[N+](CC)(CC#Cc1ccccc1)CC(=O)c1ccc(Cl)cc1,i,·,3.4,·,-2,-4,12
COc1ccccc1CC(=O)N1CCC(CCC(=O)NC2CC2)CC1,i,1.3,2.0,0.67,3,-1,-1.5
CCOC(=O)NN=C1CN(S(=O)(=O)c2ccc(C)cc2)C1,i,1.7,-0.4,0.7,1,-5,0.0
O=C(NCCc1ccccc1)c1ccc(-c2ccccc2Cl)o1,i,-0.5,-2.8,0.7,-1,7,4.9
CN(C)C(=O)c1ccc(NC(=O)c2cccc(S(=O)(=O)N3CCN(Cc4ccccc4)CC3)c2)cc1,i,4.2,-1.6,0.65,-3,·,·
CC1CC(C)CN(C(=O)CCNC(=O)Cn2cnc3ccccc3c2=O)C1 (stereo unspecified),i,0.7,-1.0,0.65,2,·,-0.1
COc1cccc([C@@H]2Oc3ccc(OC)cc3C(=O)[C@H]2OC(=O)NCc2ccc3c(c2)OCO3)c1,·,-2.5,·,·,·,-1,4.7
NNC(=O)c1cccn(Cc2ccc(Cl)cc2Cl)c1=O,i,3.6,-1.5,0.65,3,3,-0.3
COc1ccc2[nH]c(C(=O)N3CCCN(Cc4ccc(F)cc4)CC3)cc2c1,i,-7.9,4.2,0.65,-4,-21,5.4
O=C(COc1cc(Cl)ccc1Cl)Nc1nnc(CC(=O)N2CCOCC2)s1,·,0.4,2.5,0.74,-1,-3,6.4
Nc1ccc(Nc2nc(-c3cc4ccccc4oc3=O)cs2)cc1,i,2.7,-2.8,0.68,4,·,5.4
Cc1nc(NCCNC(=O)c2ccco2)c2c(C)c(C)sc2n1,·,-1.6,-0.7,0.75,-6,7,2.4
O=S(=O)(NCCOCC(F)(F)C(F)F)c1ccc2oc3ccccc3c2c1,·,6.6,-0.2,0.71,-19,-17,2.1
COc1ccc(CCNC(=O)c2nnn(CC(=O)Nc3cccc(F)c3)c2N)cc1OC,i,7.4,-1.8,0.56,4,-6,-0.9
C/C(=N/NC(=O)c1cc(-c2ccc(Br)s2)[nH]n1)c1ccco1,+,·,2.5,·,-1,68,0.0

More results follow:
Molecule,FGF22 binding,UCH37 inh,HNF4A DNA FP,Ecoli growth,B2AR ag,ALR inh,LANA-H2B inh
Cc1ccc(S(=O)(=O)N(C)C)cc1NC(=S)NCCCn1ccnc1,i,0.8,4.3,0.67,-5,-7,-5.2
O=c1oc2cc(OCc3ccc(F)cc3F)ccc2cc1-c1ccc2ccccc2n1,·,5.4,·,0.54,·,-9,-6.6
CCn1c(SCC(=O)c2cc(C)ccc2C)nc2cc(S(=O)(=O)N3CCOCC3)ccc21,i,6.2,5.1,0.69,5,·,6.9
Cc1ccc2sc(-c3ccc(NC(=O)/C=C\C(=O)O)cc3)nc2c1,i,-8.6,-1.5,·,-1,·,·
Cc1ccc2[nH]c(=O)c3cc(C(=O)N(C)Cc4ccco4)sc3c2c1,i,-124,2.7,0.79,-14,0,1.0
Cc1ccc(C(=O)CCC(=O)OCC(=O)N(C)c2c(N)n(Cc3ccccc3)c(=O)[nH]c2=O)cc1,i,-0.3,3.4,0.7,1,-3,3.6
O=C(Nc1nc(-c2cccs2)c(C(=O)C(F)(F)F)s1)c1ccco1,·,7.8,2.0,0.67,-24,1,-0.3
COc1ccc(C(=O)NCC(=O)OCC(=O)c2ccc3c(c2)NC(=O)CO3)cc1,·,0.6,-1.4,0.69,5,-9,-2.3
CC(C)(C)NS(=O)(=O)c1ccc2nc(NC(=O)Cc3cccs3)sc2c1,·,0.8,2.3,0.78,3,-3,-1.1
Cc1ccc(NC(=O)CCSc2nnc(C)s2)cc1,·,1.0,1.8,0.68,-1,-6,2.1
O=C1C=C(c2cccc(Br)c2)C[C@@H](c2ccc(F)cc2)C1,i,0.2,-2.9,·,-13,0,-0.3
COc1cc(OC)c(C=CC(=O)c2ccccc2O)c(OC)c1,i,6.0,-3.1,0.71,2,·,·
O=C(NCCc1ccccc1)C1CCN(S(=O)(=O)c2ccccc2)CC1,·,-0.6,-12,0.67,3,0,0.1
Cc1ccc(NC(=O)C2(S(=O)(=O)c3ccc(Cl)cc3)CC2)c(Br)c1,i,0.0,-2.1,0.7,3,·,-1.7
COc1ccc(S(=O)(=O)N2CCCCC2)cc1NC(=O)CCCOc1ccc(C)cc1,i,0.1,-0.6,0.71,-1,-13,-3.4
CC(C)c1ccc(/C=N/NC(=O)c2ccccc2Cl)cc1,i,·,1.1,·,8,-2,2.6
COc1cc2c(cc1OC)C(c1cc(OC)c(OC)c(OC)c1)NCC2 (stereo unspecified),·,1.6,-0.7,0.71,-1,1,-0.8&-15
O=C(c1coc2ccc(O)cc12)C1CC1,·,2.6,-0.3,0.67,-4,16,-1.4
CC(=O)N=Cc1c(C)c(C#N)c(=O)n(C)c1O,i,2.3,-1.4,0.7,1,·,3.8
O=C(CN1C(=O)CCSc2ccccc21)NC1CCCCC1,i,5.5,0.3,0.69,-14,-6,-1.2
Cc1ccc2c(C)c(C(=O)N(C)C(C)c3ccncn3)oc2c1C (stereo unspecified),i,5.1,-2.0,0.7,-4,-2,3.5
O=C(c1ccco1)N1CCN(CC(=O)N(C2CCCCC2)C2CCS(=O)(=O)C2)CC1 (stereo unspecified),·,2.2,0.2,0.75,-9,5,7.6

High-throughput results as filed in PubChem.
